MARV entry inh – blocks Marburg virus binding to or entry into cells; Marburg virus pseudotyped entry inhibition, cell reporter; control for the full effect not named in the record; about a third of the inactives were read at about 46 µM; Potency, µM (highest dose often 37.8 µM), for inactives: at the highest dose activity change, negative = inhibition, most hits filed as inhibitors; hit rate 1.8% among 300,000; AID 540276; active = well fitted inhibition curve with a large enough effect; inconclusive = small, poorly fitted or top-dose-only effect, or effect the other way; inactive = flat fitted curve, though single readings scatter; tested in HEK293 cells; about a fifth of its hits are not listed in these tables; also: % is scaled to controls: 0 for no effect and ±100 for the full control effect; luciferase read-out
RE007 growth inh – less growth of the S. pombe RE007 Vpr strain; S. pombe RE007 Vpr strain, BacTiter-Glo ATP luminescence, 24 h; control for the full effect not named in the record; Potency, µM (top dose mostly 92.2 µM), for inactives: at the top dose activity change, negative = less growth; hit rate 0.21% among 360,000; active = well fitted falling curve with a large enough effect; inconclusive = small, poorly fitted or top-dose-only effect; inactive = no such curve, though single readings can be large or run the other way;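 also: % is scaled to controls: 0 for no effect and ±100 for the full control effect; nearly all actives have a fitted effect of over 50% in size; the assay follows cell death caused by Vpr and the record does not say whether a fall means rescue or toxicity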
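Fission yeast RE007 carrying one integrated HIV-1 vpr copy, seeded at OD 0.01 in PMG+AL medium with 23 nL pinned compound. Grown 24 h at 30 degrees; viability read by BacTiter-Glo luminescence after 5 min.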
NS1 function inh – inhibitors of influenza NS1 protein function. hit rate 0.4% among 270,000. S. cerevisiae slowed by influenza A NS1, growth recovery by OD600. Potency, µM (top dose mostly 46.1 µM), without a hit: at the top dose activity, positive = more growth. AID 2326; active means well fitted rising curve with a large enough effect; inconclusive means small, poorly fitted or top-dose-only effect; inactive means no such curve, though single readings can be large or run the other way; also: nearly all actives have a fitted effect of over 50% in size
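S. cerevisiae expressing influenza A NS1, grown in glucose, washed, then diluted 1:100 into pH 6.0 -URA galactose medium with 23 nl compound. Growth recovery read as OD600; NS1-free strain serves as control.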
Cruzain Triton – blocks cruzain activity in presence of Triton detergent; P25779; purified cruzain, Z-FR-AMC fluorescence, 0.01% Triton; Potency, µM, for the others: max response, negative = inhibition, most hits filed as inhibitors; hit rate 0.43% among 200,000; AID 1478;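 also: plate controls were neutral wells for no effect and buffer without enzyme for full effect; nearly all actives have a fitted effect of over 40% in size; top concentration of the series not given in the record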
Target sequence (P25779 123-467 limits assumed): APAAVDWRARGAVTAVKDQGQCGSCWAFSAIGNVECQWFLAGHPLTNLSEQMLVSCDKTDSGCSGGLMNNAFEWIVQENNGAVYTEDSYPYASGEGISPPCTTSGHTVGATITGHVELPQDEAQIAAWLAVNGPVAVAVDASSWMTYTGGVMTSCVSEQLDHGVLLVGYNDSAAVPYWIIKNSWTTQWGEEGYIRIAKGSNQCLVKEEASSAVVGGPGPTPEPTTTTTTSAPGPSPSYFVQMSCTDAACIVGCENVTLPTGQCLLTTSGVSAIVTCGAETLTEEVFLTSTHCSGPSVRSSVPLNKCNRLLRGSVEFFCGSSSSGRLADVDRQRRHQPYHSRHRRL
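Z-FR-AMC hydrolysis (2 uM substrate) by cruzain (1.5 nM) monitored kinetically at ex 360/em 450 nm after 15 min room-temperature compound exposure; 0.01% Triton X-100, pH 5.5, 5 mM DTT.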
SARS PLP yeast – SARS-CoV PLP inhibition in yeast; hit rate 0.19% among 330,000; Potency, µM (series often up to 32.9 µM), for inactives: at the top dose activity, positive = growth rescue; S. cerevisiae expressing SARS-CoV PLpro, growth rescue; control for the full effect not named in the record; active means well fitted rising curve with a large enough effect; inconclusive means small, poorly fitted or top-dose-only effect; inactive means no such curve, though single readings can be large or run the other way; also: 0% is about no effect; nearly all actives have a fitted effect of over 55% in size; growth read by luminescence after 48 h
Cruzain inh noDet – inhibitors of Trypanosoma cruzi cruzain without detergent. P25779. purified cruzain, Z-FR-AMC fluorescence, no detergent. Potency, µM, inactives show max response, negative = inhibition, hits mostly inhibitors. hit rate 2.3% among 200,000;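 also: plate controls were enzyme without inhibitor for no effect and buffer without enzyme for full effect; nearly all actives have a fitted effect of over 40% in size; top concentration of the series not given in the record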
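Purified cruzain at 1.5 nM, pre-incubated 15 min with compound at room temperature in 100 mM sodium acetate pH 5.5, 5 mM DTT, 0.00005% Triton X-100. Reaction started with 2 uM Z-FR-AMC; AMC fluorescence increase over 60 s gives rate.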
Lassa entry inh – blocks Lassa virus binding to or entry into cells; Potency, µM (doses to about 37.9 µM), for inactives: top-dose activity change, negative = inhibition, most hits filed as inhibitors; Lassa virus pseudotype entry inhibition, cell reporter; control for the full effect not named in the record; hit rate 1.2% among 300,000; active means well fitted inhibition curve with a large enough effect; inconclusive means small, poorly fitted or top-dose-only effect, or effect the other way; inactive means flat fitted curve, though single readings scatter; tested in HEK293 cells; also: % is scaled to controls: 0 for no effect and ±100 for the full control effect; nearly all actives have a fitted effect of over 50% in size; luciferase read-out
2A StopGo – lowers the luciferase signal of an FMDV 2A StopGo reporter; AID 1159524; hit rate 1.2% among 410,000; Potency, µM (top dose mostly 57.9 µM), for the others: top-dose signal change, negative = less light; human cells with a luciferase reporter of 2A StopGo recoding; control for the full effect not named in the record; active = well fitted falling curve with a large enough effect; inconclusive = small, poorly fitted or top-dose-only effect; inactive = no such curve, though single readings can be large or run the other way; tested in HEK293T cells; also: % is scaled to controls: 0 for no effect and ±100 for the full control effect; nearly all actives have a fitted effect of over 45% in size; luciferase light after 4 h
An asterisk follows results filed as active; ? = inconclusive; / = not tested or not shown; & = joins results of further samples; [ ] = remark or other dose. Unless noted, calls follow the shape of the dose curve; as a rule, active = well fitted curve in the direction sought with a large enough effect; inconclusive = small, poorly fitted or top-dose-only effect, or another doubt; inactive = no such curve, though single readings can be large; an effect the other way counts as inactive or inconclusive. Potency is read from the fitted curve at half-maximal effect.

No.	Molecule	MARV entry inh	RE007 growth inh	NS1 function inh	Cruzain Triton	SARS PLP yeast	Cruzain inh noDet	Lassa entry inh	2A StopGo
1	O=C1CSC(c2ccccc2F)N1CCN1CCCCC1 (stereo not given)	4%	1%	?	2.8%	2%	-4%	-7%	-2%
2	CCc1ccc(/C=N/Nc2ncnc3nc[nH]c23)cc1	?	-5%	0%	/	2%	/	7.9µM*	-26%
3	O=C1CCN(Cc2ccccc2)CCN1[C@H](CSc1ccccc1)Cc1ccccc1	/	-17%	-4%	/	-1%	/	/	-12%
4	COc1ccc2ncn(-c3ccccc3)c2c1	-19%	6%	-8%	-1.4%	7%	12%	-6%	10%
5	CN(Cc1ccc(F)cc1Cl)S(=O)(=O)c1cccs1	-19%[46.1 µM]	-4%	-4%	/	-5%	/	-3%	44%[activator]
6	Cc1nn(-c2ccc(Cl)cc2)c(NC(=O)C(C)C)c(-c2ccccc2)c1=O	/	5%	12%	/	-2%	/	/	-16%
7	COc1cccc(C(C(=O)NCc2ccco2)N(C(=O)Cn2nnc3ccccc32)C2CC2)c1OC (stereo not given)	-21%	6%	-1%	3.0%	3%	-12%	4%	-3%
8	COc1ccccc1Nc1ccc(C(=O)NCc2cccs2)cn1	-1%[46.1 µM]	9%	-5%	/	-1%	/	-24%	20%
9	CCN1C(=O)/C(=C\c2cccn2-c2ccc([N+](=O)[O-])cc2)N(CC)C1=S	0%	2%	2%	-3.3%	-13%	-28%	0%	-33%
10	COc1ccc(NC(=O)CSc2ccc3nnc(-c4cccnc4)n3n2)cc1OC	/	4%	1%	/	-3%	/	/	-7%

Next results.
No.	Molecule	MARV entry inh	RE007 growth inh	NS1 function inh	Cruzain Triton	SARS PLP yeast	Cruzain inh noDet	Lassa entry inh	2A StopGo
11	CCn1c2ccccc2c2cc(/C=N/n3c(-c4cc(C)[nH]n4)n[nH]c3=S)ccc21	5µM*	24%	14%	/	0%	/	?	0%
12	COc1ccc(S(=O)(=O)NNC(=O)c2cc3ccccc3o2)cc1	12%	-5%	-5%	-2.2%	1%	-2%	2%	-5%
13	Cc1nc(N)sc1-c1csc(Nc2ccc(Cl)cn2)n1	?	0%	-95%	28µM*	21%	16µM*	-9%	15%
14	Cc1cc(C)cc(NC(=O)c2ccc3c(c2)nnn3C2CCCC2)c1	/	/	/	-4.6%	/	-7%	?	?
15	COc1ccc(/C(C)=N/NC(=O)c2ccc(NS(=O)(=O)c3cccs3)cc2)cc1	/	3%	7%	/	0%	/	/	11%
16	Cc1cc(=O)c2c(o1)CC(C)(C)CC2=O	1%	11%	-3%	0.1%	13%[6.58 µM]	-1%	6%	/
17	Cc1ccc2oc(Nc3nc(-c4ccccc4)cc(=O)[nH]3)nc2c1	?	1%	/	/	0%	/	-17%	?
18	NS(=O)(=O)c1cccc(NC(=O)C2CC(=O)N(Cc3ccco3)C2)c1 (stereo not given)	-15%[46.1 µM]	-2%	5%	/	-2%	/	25%	-8%
19	Cc1cccc(CC(=O)N2CCN(C(=O)c3ccco3)CC2)c1	12%[46.1 µM]	3%	8%	/	1%	/	7%[46.1 µM]	11%
20	Cc1ccc(-n2c(=O)c3sccc3n(CC(=O)N3CCCC3)c2=O)cc1	15%	6%	8%	3.1%	-11%	6%	0%	-1%

Next entries.
No.	Molecule	MARV entry inh	RE007 growth inh	NS1 function inh	Cruzain Triton	SARS PLP yeast	Cruzain inh noDet	Lassa entry inh	2A StopGo
21	COc1ccc(OC)c(C2NC(=S)NC(C)=C2C(=O)Nc2ccccn2)c1 (stereo not given)	30%[46.1 µM]	5%	3%	/	0%	/	9%	-10%
22	O=[N+]([O-])c1ccc(NC(=S)NCCc2ccc(Cl)cc2)cc1	?	?	-46%	-24%	-30%	-14%	?	9%
23	C=CS(=O)(=O)N(Cc1ccc(Cl)c(Cl)c1)C[C@@H](O)CO	/	-19%	/	/	7%	/	?	-8%
24	Cc1ccc(C)c(S(=O)(=O)N2CCN(C(=O)Cc3sc(C)nc3-c3ccc(F)cc3)CC2)c1	?	-22%	/	/	/	/	?	-16%
25	CC(C)c1ccc(Nc2c(-c3ccsc3)nc3ccc(Cl)cn23)cc1	-2%[46.1 µM]	/	/	-1.6%	/	6%	14%[46.1 µM]	5%
26	O=C(NNC(=O)c1ccccc1F)c1cccc(-n2cccc2)c1	12%	-10%	/	/	3%	/	6%	22%
27	Cc1ccc(OCC(=O)Nc2ccccc2C(N)=O)cc1	-8%[46.1 µM]	-7%	2%	/	-3%	/	?	12%
28	CC(=O)C1=C(C)OC(N)=C(C#N)C1c1cc2cccc(C)c2nc1Cl (stereo not given)	15%	-6%	4%	-27%	-2%	-24%	1%	-16%
29	COCCCNCCCCOc1ccccc1-c1ccccc1	?	16%	-7%	0.5%	-13%	4%	?	-15%
30	CCOC(=O)C1=C(C)NC(=O)NC1c1ccc(C)o1 (stereo not given)	/	0%	5%	0.6%	3%	-3%	/	-2%

New compounds follow:
No.	Molecule	MARV entry inh	RE007 growth inh	NS1 function inh	Cruzain Triton	SARS PLP yeast	Cruzain inh noDet	Lassa entry inh	2A StopGo
31	Cc1ccc(S(=O)(=O)N2CC(=O)Nc3ccccc32)cc1C	9%	-10%	1%	2.0%	16%	2%	-3%	/
32	CCCCN(CC)C(=S)Nc1ccc2nc(N3CCN(C)CC3)cc(C)c2c1	/	-2%	-8%	/	0%	/	/	0%
33	COc1cccc(NC(=O)CCC2CCN(C(=O)Cc3cccc(F)c3)CC2)c1	?	1%	-12%	/	1%	/	-2%	-23%
34	O=C(c1ccc(COc2ccccc2Br)o1)N1CCN(c2ccccn2)CC1	2%	-14%[3.69 µM]	-59%	-4.8%	-9%	?	0%	?
35	Cc1c(C(=O)N2CCOCC2)sc(NC(=O)Cc2ccccc2)c1C#N	?	13%	1%	/	0%	/	?	-5%
36	O=C(NCc1ccco1)C1CCN(c2nc3ccccc3n2Cc2ccc(F)cc2)CC1	/	-4%	-58%	-4.2%	-2%	6%	/	-24%
37	Cn1c(=O)cc(SCC(=O)N2CCN(c3ccccc3)CC2)c2ccccc21	-11%[46.1 µM]	15%	0%	-4.3%&4.6%	5%	25%&27%	-10%[46.1 µM]	?
38	Cc1ccc(NC(=O)Cn2c(=O)c(C)nc3ccccc32)cc1	?	18%	4%	/	0%	/	9%	-7%
39	CC1CCN(C(=O)COC(=O)C2CCN(S(=O)(=O)c3ccc(Cl)c(C(F)(F)F)c3)CC2)CC1	12%	-13%	/	/	4%	/	13%	-10%
40	CCOC(=O)c1c(NC(=O)c2c(C)noc2C)sc2c1CCCCC2	6%	-1%	11%	3.9%	-1%	3%	-1%	-12%

Other compounds:
No.	Molecule	MARV entry inh	RE007 growth inh	NS1 function inh	Cruzain Triton	SARS PLP yeast	Cruzain inh noDet	Lassa entry inh	2A StopGo
41	COc1ccc(C)cc1NC(=O)COC(=O)c1c(C)noc1C	11%	6%	-9%	-1.3%	-2%	3%	1%	3%
42	Cc1cc(C(=O)Cn2nnc3ccccc3c2=O)c(C)n1-c1ccccc1F	3.2µM*	-20%	2%	-1.7%	-16%	-5%	1.1µM*	?
43	O=C(NCc1ccc2c(c1)OCO2)C1CC(=O)N(C2CCCCCCC2)C1 (stereo not given)	7%	12%	-5%	3.1%	-16%	0%	-12%	-7%
44	COc1ccc([N+](=O)[O-])cc1NC(=O)CN(C)S(=O)(=O)c1ccccc1	-9%[46.1 µM]	1%	/	/	0%	/	-1%	-22%
45	O=C(Nc1cccc(NC(=O)c2c(F)cccc2F)n1)c1c(F)cccc1F	-27%	7%	-65%	/	1%	/	-1%	-16%
46	COCCNC(=O)c1cccc(OC2CCN(Cc3ccc(F)cc3OC)CC2)c1	/	4%	18%	/	3%	/	/	0%
47	COc1ccc(-c2csc3ncnc(Cl)c23)cc1	-19%	-16%	-2%	/	1%	/	-2%	?
48	NS(=O)(=O)c1ccc(NC(=O)COC(=O)c2cc3ccccc3cc2O)cc1	/	0%	4%	/	0%	/	/	-13%
49	Cc1cc(C)nc(-n2nc(C)c3c2N(Cc2ccccc2)C(=O)CC3c2ccc(Cl)cc2)n1 (stereo not given)	-1%[46.1 µM]	/	/	-7.1%	/	?	-24%[46.1 µM]	-15%
50	COc1cc(OC)c(C(=O)OC(C)C(=O)NCc2ccc3c(c2)OCO3)cc1OC (stereo not given)	-20%[46.1 µM]	11%	/	/	-5%	/	-6%[46.1 µM]	22%

Compounds listed so far that have an aryl thioether with sulfur outside any ring (3):
No.	Molecule	MARV entry inh	RE007 growth inh	NS1 function inh	Cruzain Triton	SARS PLP yeast	Cruzain inh noDet	Lassa entry inh	2A StopGo
3	O=C1CCN(Cc2ccccc2)CCN1[C@H](CSc1ccccc1)Cc1ccccc1	/	-17%	-4%	/	-1%	/	/	-12%
10	COc1ccc(NC(=O)CSc2ccc3nnc(-c4cccnc4)n3n2)cc1OC	/	4%	1%	/	-3%	/	/	-7%
37	Cn1c(=O)cc(SCC(=O)N2CCN(c3ccccc3)CC2)c2ccccc21	-11%[46.1 µM]	15%	0%	-4.3%&4.6%	5%	25%&27%	-10%[46.1 µM]	?

Following part:
No.	Molecule	MARV entry inh	RE007 growth inh	NS1 function inh	Cruzain Triton	SARS PLP yeast	Cruzain inh noDet	Lassa entry inh	2A StopGo
51	CCOCCn1c(SCc2cccc(C)c2)nc2c1c(=O)[nH]c(=O)n2C	/	11%	-5%	-1.6%	3%	-9%	/	-6%
52	CCc1ccccc1NC1c2ccccc2C(=O)N1Cc1ccco1 (stereo not given)	2%	4%	-116%	-4.4%	1%	-10%	5%	-9%
53	CCOC(=O)c1c(S(=O)(=O)NCC(=O)Nc2cc(C)ccc2C)c(C)n(C)c1C	12%&12%[46.1 µM]	3%	-21%	1.3%	-2%	11%	-2%&-5%[46.1 µM]	3%&-6%
54	CS(=O)(=O)N(CC(=O)Nc1ccccc1-c1ccccc1)c1ccc(F)cc1	?	?	-5%	/	0%	/	-10%	-18%
55	COc1cccc(C(C(=O)NC(C)(C)C)N(Cc2ccco2)C(=O)CCC(=O)Nc2cc(C)on2)c1OC (stereo not given)	?	-7%	-4%	/	0%	/	-1%[46.1 µM]	62%[activator]
